# Compound activity: PubChem BioAssay, ICCB-Longwood Screening Facility, Harvard Medical School
# ugtP null kill = growth inhibition of ugtP-null S. aureus, primary screen, RN4220 ugtP deletion, OD600 | 16 h; some inactives read as strong as hits | growth inhibition, % (no concentration beside the values) | actives 0.54% (n = 330,000);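 active means z-score under -3 and OD600 up to 0.15 on both plates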;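 further: plate controls were untreated wells for no effect and antibiotic for full effect; wells of about 80 µL received 100 nL stock; the first replicate is given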
# Sa RN4220 lethal = growth inhibition of S. aureus RN4220, primary screen, OD600 | 16 h | AID 1259311, 2017 | actives 0.33% (n = 330,000) | inhibition, % (test concentration not listed);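 active means z-score of -3 or lower and OD600 up to 0.18 on both plates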;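 further: plate controls were untreated cells for no effect and reference antibiotic for full effect; stock transfer was 100 nL into about 80 µL; one replicate is shown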
# Starred values were filed as active, the others as inactive.
canonical_smiles: Cc1ccc(C)c(S(=O)(=O)NN=C2CCCc3ccccc32)c1
  ugtP null kill: 0
  Sa RN4220 lethal: -5.9
canonical_smiles: COc1ccc2c(Cl)c(C(=O)NN=Cc3ccc4c(c3)OCO4)sc2c1
  ugtP null kill: -1
  Sa RN4220 lethal: -1.6
canonical_smiles: O=c1c2ccccc2nc(-c2ccco2)n1N=Cc1ccco1
  ugtP null kill: 3
  Sa RN4220 lethal: 1.0
canonical_smiles: CCC1S/C(=N/N=Cc2cccs2)NC1=O (stereo unspecified)
  ugtP null kill: 9
  Sa RN4220 lethal: 0.1
canonical_smiles: CCOC(C)=Nn1c2nc3ccccc3nc2c2c(=O)n(CC(C)C)c(C)nc21
  ugtP null kill: -6
  Sa RN4220 lethal: 0.7
canonical_smiles: CCC(=NNC(=O)c1ccncc1)C12CC3CC(CC(C3)C1)C2
  ugtP null kill: 7
  Sa RN4220 lethal: 6.3
canonical_smiles: CCOC(=O)c1c(C)n(-c2ccc(OC)cc2)c2c(CC(C)=NO)c(Br)c(OC)c(O)c12
  ugtP null kill: -3
  Sa RN4220 lethal: 5.0
canonical_smiles: COc1ccc(C=Nn2c(N)nc3ccccc32)cc1OC
  ugtP null kill: 1
  Sa RN4220 lethal: 2.9
canonical_smiles: Cc1ccc(S(=O)(=O)N2CCN(CC(=O)NN=C/C=C/c3ccccc3)CC2)cc1
  ugtP null kill: -2
  Sa RN4220 lethal: 2.9
canonical_smiles: O=C(NN=Cc1ccccc1)c1ccc(N2CCCC2=O)cc1
  ugtP null kill: 9
  Sa RN4220 lethal: 0.3
canonical_smiles: C(=NN1CCN(C2c3ccccc3-c3ccccc32)CC1)c1ccccn1
  ugtP null kill: 1
  Sa RN4220 lethal: 0.9
canonical_smiles: O=S(=O)(N=C(c1ccc(Cl)cc1)N1CCOCC1)c1ccc(Cl)cc1
  ugtP null kill: -2
  Sa RN4220 lethal: 1.4
canonical_smiles: COc1ccc(NS(=O)(=O)c2cccc(C(=O)NN=C(C)c3ccc(-n4ccnc4)cc3)c2)cc1
  ugtP null kill: 0
  Sa RN4220 lethal: 2.2
canonical_smiles: CN(N=Cc1cccs1)c1cc(=O)n(C)c(=O)[nH]1
  ugtP null kill: 3
  Sa RN4220 lethal: -1.4
canonical_smiles: COc1ccc(Cl)cc1NC(=O)CC(C)=NNC(=O)CC#N
  ugtP null kill: 11
  Sa RN4220 lethal: 3.5
canonical_smiles: Cn1c(=S)n(N=Cc2ccc3c(c2)OCO3)c2ccccc21
  ugtP null kill: 4
  Sa RN4220 lethal: 4.9
canonical_smiles: O=C(NN=Cc1cccc(C(F)(F)F)c1)c1cc2c(s1)-c1ccccc1CC2
  ugtP null kill: 5
  Sa RN4220 lethal: -8.9
canonical_smiles: CCOC(=O)NC(=O)C(C#N)=NNc1ccc(Cl)cc1
  ugtP null kill: 2
  Sa RN4220 lethal: 2.4
canonical_smiles: CC(=NOCC(=O)Nc1ccccc1)c1cccs1
  ugtP null kill: 1
  Sa RN4220 lethal: 5.6
canonical_smiles: CC(=NNC(=O)C(C)Sc1ccccc1)C(C)(C)C (stereo unspecified)
  ugtP null kill: 2
  Sa RN4220 lethal: 11
canonical_smiles: COc1ccc(OC)c(C=NNC(=O)c2csc3ccccc23)c1
  ugtP null kill: 11
  Sa RN4220 lethal: 0.7
canonical_smiles: CC(=NNC(=O)c1c(Br)c(C)nn1C)c1ccc(NC(=O)C(C)Oc2ccc(Cl)cc2C)cc1 (stereo unspecified)
  ugtP null kill: 35
  Sa RN4220 lethal: 38
canonical_smiles: C=CCON=C(C)c1c(O)c(CC)c(-c2ccccc2)n(-c2ccccc2)c1=O
  ugtP null kill: 9
  Sa RN4220 lethal: 2.7
canonical_smiles: C=CCN1C(=O)C(Cc2ccccc2)SC1=NN=Cc1cccs1 (stereo unspecified)
  ugtP null kill: 7
  Sa RN4220 lethal: -3.2
canonical_smiles: O=C(NCCN1CCCCC1)C(=NO)c1ccccc1
  ugtP null kill: -6
  Sa RN4220 lethal: -2.5
canonical_smiles: CCOC(=O)C1=C(N)n2c(sc(=Cc3ccccc3)c2=O)=C(C(=O)OCC)C1c1ccccc1 (stereo unspecified)
  ugtP null kill: -1
  Sa RN4220 lethal: -0.2
canonical_smiles: C(=NN1CCN(C2c3ccccc3-c3ccccc32)CC1)c1cccnc1
  ugtP null kill: 3
  Sa RN4220 lethal: -7.3
canonical_smiles: O=C(NCc1cccnc1)C(=NO)c1ccccc1
  ugtP null kill: 6
  Sa RN4220 lethal: -0.5

# Compound profiles, as listed above.
# `CC(=NNC(=O)C(C)Sc1ccccc1)C(C)(C)C` (stereo unspecified) reads ugtP null kill: 2; Sa RN4220 lethal: 11
# `COc1ccc(OC)c(C=NNC(=O)c2csc3ccccc23)c1` reads ugtP null kill: 11; Sa RN4220 lethal: 0.7
# `C=CCN1C(=O)C(Cc2ccccc2)SC1=NN=Cc1cccs1` (stereo unspecified) reads ugtP null kill: 7; Sa RN4220 lethal: -3.2

# Quoted at random: 4 records from the list
canonical_smiles: CCOC(=O)NC(=O)C(C#N)=NNc1ccc(Cl)cc1
  ugtP null kill: 2
  Sa RN4220 lethal: 2.4
canonical_smiles: COc1ccc(OC)c(C=NNC(=O)c2csc3ccccc23)c1
  ugtP null kill: 11
  Sa RN4220 lethal: 0.7
canonical_smiles: COc1ccc(Cl)cc1NC(=O)CC(C)=NNC(=O)CC#N
  ugtP null kill: 11
  Sa RN4220 lethal: 3.5
canonical_smiles: CCOC(=O)c1c(C)n(-c2ccc(OC)cc2)c2c(CC(C)=NO)c(Br)c(OC)c(O)c12
  ugtP null kill: -3
  Sa RN4220 lethal: 5.0

# These rows are one share of the data; rates above refer to the full screens.
